Screening data: PubChem, National Center for Advancing Translational Sciences (NCATS)
Cruzain inh noDet – qHTS Assay for Promiscuous and Specific Inhibitors of Cruzain (without detergent); Potency, µM, without a hit: max response, negative = inhibition, hits mostly inhibitors; AID 1476, 2009; actives 2.3% (n = 200,000); purified cruzain, Z-FR-AMC fluorescence, no detergent; Cruzipain (Trypanosoma cruzi), P25779; active means well fitted curve in the direction sought with a large enough effect; inconclusive means small, poorly fitted or top-dose-only effect, or another doubt; inactive means no such curve, though single readings can be large; an effect the other way counts as inactive or inconclusive;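 further: plate controls were enzyme without inhibitor for no effect and buffer without enzyme for full effect; nearly all actives have a fitted effect of over 40% in size; top concentration of the series not given in the record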
Target sequence (P25779 123-467 limits assumed): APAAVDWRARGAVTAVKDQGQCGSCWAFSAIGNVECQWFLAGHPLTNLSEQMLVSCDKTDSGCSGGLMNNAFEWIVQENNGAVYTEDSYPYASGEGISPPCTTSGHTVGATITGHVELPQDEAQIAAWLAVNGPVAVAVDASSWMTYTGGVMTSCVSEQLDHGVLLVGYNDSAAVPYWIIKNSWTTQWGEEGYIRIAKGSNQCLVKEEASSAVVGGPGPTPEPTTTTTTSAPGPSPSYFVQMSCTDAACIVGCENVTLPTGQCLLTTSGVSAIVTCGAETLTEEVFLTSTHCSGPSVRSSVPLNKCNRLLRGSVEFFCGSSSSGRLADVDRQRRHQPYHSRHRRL
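Purified cruzain at 1.5 nM, pre-incubated 15 min with compound at room temperature in 100 mM sodium acetate pH 5.5, 5 mM DTT, 0.00005% Triton X-100. Reaction started with 2 uM Z-FR-AMC; AMC fluorescence increase over 60 s gives rate.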
Cruzain Triton – qHTS Assay for Promiscuous and Specific Inhibitors of Cruzain (with detergent) | purified cruzain, Z-FR-AMC fluorescence, 0.01% Triton | Potency, µM, for the others: max response, negative = inhibition, hits mostly inhibitors | actives 0.43% (n = 200,000) | AID 1478, 2009; active means well fitted curve in the direction sought with a large enough effect; inconclusive means small, poorly fitted or top-dose-only effect, or another doubt; inactive means no such curve, though single readings can be large; an effect the other way counts as inactive or inconclusive;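 further: plate controls were neutral wells for no effect and buffer without enzyme for full effect; nearly all actives have a fitted effect of over 40% in size; top concentration of the series not given in the record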
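Sodium acetate buffer (100 mM, pH 5.5) containing 5 mM DTT and 0.01% Triton X-100 hosted 1.5 nM cruzain and test compound for 15 min at room temperature. Cleavage of 2 uM Z-FR-AMC was then tracked by fluorescence.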
MARV entry inh – qHTS for inhibitors of binding or entry into cells for Marburg Virus. Marburg virus pseudotyped entry inhibition, cell reporter; control for the full effect not named in the record; about a third of the inactives were read at about 46 µM. Potency, µM (series often up to 37.8 µM), for the others: at the highest dose activity change, negative = inhibition, actives largely listed as inhibitors. actives 1.8% (n = 300,000); active = well fitted inhibition curve with a large enough effect; inconclusive = small, poorly fitted or top-dose-only effect, or effect the other way; inactive = flat fitted curve, though single readings scatter; tested in HEK293 cells; about a fifth of its hits are not listed in these tables; further: on the % scale 0 is the no-effect control and ±100 the full control effect; luciferase read-out
NS1 inh – qHTS Assay for Inhibitors of Influenza NS1 Protein Function; S. cerevisiae slowed by influenza A NS1, growth recovery by OD600; Potency, µM (top dose mostly 46.1 µM), for the others: at the highest dose activity, positive = more growth; actives 0.4% (n = 270,000); AID 2326, 2010; further: actives are rising curves; nearly all actives have a fitted effect of over 50% in size
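Growth recovery, yeast-based: influenza A NS1 expressed in S. cerevisiae causes slow growth, and suppressors are detected by OD600. The parent strain without NS1 is used as positive control.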
RE007 growth inh – qHTS Assay for Inhibitors of the HIV-1 protein Vpr; S. pombe RE007 Vpr strain, BacTiter-Glo ATP luminescence, 24 h; control for the full effect not named in the record; Potency, µM (top dose mostly 92.2 µM), without a hit: at the highest dose activity change, negative = less growth; actives 0.21% (n = 360,000); AID 651644, 2012; active = well fitted falling curve with a large enough effect; inconclusive = small, poorly fitted or top-dose-only effect; inactive = no such curve, though single readings can be large or run the other way;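 further: on the % scale 0 is the no-effect control and ±100 the full control effect; nearly all actives have a fitted effect of over 50% in size; the assay follows cell death caused by Vpr and the record does not say whether a fall means rescue or toxicity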
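Fission yeast RE007 carrying one integrated HIV-1 vpr copy, seeded at OD 0.01 in PMG+AL medium with 23 nL pinned compound. Grown 24 h at 30 degrees; viability read by BacTiter-Glo luminescence after 5 min.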
SARS PLP yeast – qHTS of Yeast-based Assay for SARS-CoV PLP. actives 0.19% (n = 330,000). Potency, µM (highest dose often 32.9 µM), for inactives: at the highest dose activity, positive = growth rescue. S. cerevisiae expressing SARS-CoV PLpro, growth rescue; control for the full effect not named in the record; further: 0% is about no effect; nearly all actives have a fitted effect of over 55% in size; growth read by luminescence after 48 h
2A StopGo – High Throughput Screening for Foot and Mouth Disease Virus Antivirals | human cells with a luciferase reporter of 2A StopGo recoding; control for the full effect not named in the record | Potency, µM (doses to about 57.9 µM), inactives show top-dose signal change, negative = less light | actives 1.2% (n = 410,000) | AID 1159524, 2015; active = well fitted falling curve with a large enough effect; inconclusive = small, poorly fitted or top-dose-only effect; inactive = no such curve, though single readings can be large or run the other way; tested in HEK293T cells; further: on the % scale 0 is the no-effect control and ±100 the full control effect; nearly all actives have a fitted effect of over 45% in size; luciferase light after 4 h
LASV entry inh – qHTS for Inhibitors of binding or entry into cells for Lassa Virus; Lassa virus pseudotype entry inhibition, cell reporter; control for the full effect not named in the record; Potency, µM (highest dose often 37.9 µM), inactives show at the highest dose activity change, negative = inhibition, hits mostly inhibitors; actives 1.2% (n = 300,000); active means well fitted inhibition curve with a large enough effect; inconclusive means small, poorly fitted or top-dose-only effect, or effect the other way; inactive means flat fitted curve, though single readings scatter; tested in HEK293 cells; further: on the % scale 0 is the no-effect control and ±100 the full control effect; nearly all actives have a fitted effect of over 50% in size; luciferase read-out
Active calls of the source: *; ? = inconclusive; / = not tested or not shown; & = joins results of further samples; [ ] = dose if it differs, or a comment. Unless noted, the call rests on the fitted dose curve; in most records, active means well fitted rising curve with a large enough effect; inconclusive means small, poorly fitted or top-dose-only effect; inactive means no such curve, though single readings can be large or run the other way. Potency means the concentration at half of the fitted maximal effect.

SMILES	Cruzain inh noDet	Cruzain Triton	MARV entry inh	NS1 inh	RE007 growth inh	SARS PLP yeast	2A StopGo	LASV entry inh
COC(=O)c1c(N)sc2c1CC(C)(C)OC2	/	/	-1%[46.1 µM]	/	1%	-1%	-13%	11%[46.1 µM]
c1ccc(Sc2ccccn2)cc1	/	/	0%[46.1 µM]	/	-24%	/	19%	-1%
COc1ccc(Cl)cc1NC(=O)CNCc1cccs1	/	/	/	-5%	-7%	0%	-22%	/
O=C(c1ccco1)N1CCN(Cc2nnc(-c3ccccc3F)o2)CC1	/	/	8%[46.1 µM]	14%	0%	4%	3%	-1%
COc1ccc(N2CCN(c3ccc(NC(=O)NN)cc3)CC2)cc1	/	/	2%	24%	-2%	-1%	-11%	-7%
Brc1ccccc1OCCCCCN1CCCC1	-1%	0.1%	0%	-14%	/	-4%	/	/
Cc1nn(Cc2ccc([N+](=O)[O-])cc2)c(=O)n1-c1ccc(F)cc1	2%	5.7%	28%	6%	15%	-8%	-3%	25%
COc1ccc2oc(C(=O)OCC(=O)NC(C)(C#N)C3CC3)c(C)c2c1 (stereo not drawn)	/	/	-1%	/	-2%	3%	-24%	1%
CCc1ccc(-c2cnc3nc[nH]c(=O)c3n2)cc1	/	/	25%	/	2%	/	64%[activator]	19%
Cc1cccc(CSc2nnc(CCNC(=O)OC(C)(C)C)o2)c1	/	/	0%[14.2 µM]	2%	-4%	-1%	-5%	-27%
CC1(C)C([N+](=O)[O-])C(c2ccc(F)cc2)NC(c2ccc(F)cc2)C1[N+](=O)[O-] (stereo not drawn)	/	/	?	5%	-20%	0%	?	-27%
O=C(NCc1ccc2c(c1)OCO2)c1cccc(S(=O)(=O)N2CCOCC2)c1	3%	2.6%	10%	-4%	3%	-1%	10%	15%
O=C(COC(=O)c1cnccn1)Nc1ncc(Cl)cc1Cl	/	/	3%	/	-10%	-2%	-23%	19%
CC(C)CCNC(=O)CSc1nnc(-c2ccc(S(=O)(=O)N3CCCC3)cc2)n1C	6%	0.3%	10%	1%	-9%	15%	/	-1%
COc1ccccc1NC(=O)C(=O)N/N=C/c1cccs1	4%	-6.2%	?	-31%	-9%	-47%	4%	-1%
CCOC(=O)c1c[nH]c2c(C(=O)c3ccccc3)cc(Cl)cc2c1=O	/	/	1%[46.1 µM]	-5%	0%	4%	-13%	14%[46.1 µM]
O=C1CC(=O)CC(c2ccccc2Cl)C1	1%	-1.8%	-7%	?	-2%	30%	-3%	-6%
COC(=O)c1ccc(N2CCN(C)CC2)c(NC(=O)COc2ccc(OC)cc2)c1	3%	-0.3%	?	9%	11%	7%	-8%	?
CC(=O)c1c(C)[nH]c(C(=O)NCc2ccco2)c1C	/	/	5%[46.1 µM]	3%	-9%	3%	7%	-6%
COc1ccc(/C=C2\Oc3cc(OCC(=O)N4CCC[C@H]4CO)ccc3C2=O)c(OC)c1	/	/	/	2%	16%	-5%	-13%	/
CCCc1nc2ccc(NC(=O)NCCC(=O)OCC)cc2c(=O)n1Cc1cccc(Cl)c1	?	-7.3%	-26%	9%	13%	-2%	?	-12%
COc1cccc(CNS(=O)(=O)c2ccc3c(c2)NC(=O)CS3)c1	/	/	/	1%	-8%	-2%	40%[activator]	/
COc1ccccc1/C=C\C=N\NC(=O)CCn1nnc2ccccc21	-7%	-9.8%	18%	6%	9%	3%	-1%	-27%
CSc1nc2ccc(N3C(=O)C4CCCCC4C3=O)cc2s1 (stereo not drawn)	-1%	-1.6%	18%	-2%	-1%	-4%	51%[activator]	-24%[14.3 µM]
CCOC(=O)C1CCN(C(=S)NC2CC3C=CC2C3)CC1 (stereo not drawn)	/	/	-5%	-5%	5%	-1%	-17%	21%
Cn1c(CN2CCCC2)nc2cc(NC(=O)Nc3ccccc3)ccc21	-18%	-1.1%	12%	3%	2%	10%	/	27%
O=C(NCc1ccco1)c1cnc2ccccn2c1=O	-6%	-3.3%	/	-37%	2%	0%	1%	/
CCc1cccc2c(C=C(C#N)C#N)cn(CC(=O)N3CCCCCC3)c12	12%	0.8%	-18%	5%	-20%	6%	/	-2%
Cc1ccc(S(=O)(=O)/N=C(\CN2CCOCC2)N2CCOCC2)cc1	11%	1.2%	-15%	11%	0%[3.69 µM]	-5%	0%	-1%
Cc1cccc2nc(Cn3c(=O)n(CCC(=O)NCc4ccco4)c(=O)c4sccc43)cc(=O)n12	-14%	1.4%	-9%	7%	-8%	0%	5%	5%
CC(C)(C)C(=O)Nc1cccc(-c2cn3cccnc3n2)c1	-12%	-22%	/	/	/	/	5%	23%[46.1 µM]
CCCOC1(C(F)(F)F)NC(=O)N(c2ccc(Cl)cc2)C1=O (stereo not drawn)	0%	-4.7%	-13%[46.1 µM]	/	/	/	-7%	-22%[46.1 µM]
COc1cccc(-c2c(NC(=O)c3ccco3)oc3ccc(Cl)cc3c2=O)c1	/	/	1%[46.1 µM]	9%	-19%	-10%	-15%	13%[46.1 µM]
O=C(Nc1ccc(S(=O)(=O)N(Cc2ccccc2)c2ccccc2)cc1)c1ccc(F)cc1	0%	-1.9%	-4%[46.1 µM]	/	/	/	-11%	?
CCn1c(SCC(=O)N2CCCC2)nnc1-c1ccco1	/	/	20%[46.1 µM]	18%	-5%	10%	28%	27%
O=C(O)c1ccccc1NCCO	/	/	21%[46.1 µM]	/	-9%	1%	-1%	14%
COC(=O)Cc1ccc(NC(=O)c2ccc(C(C)(C)C)cc2)cc1	?	-9.0%	?	-83%	-16%	-11%	10µM*	6.5µM*
Cc1ccc(S(=O)(=O)N2CCCCC2)cc1NC(=O)CCNC(=O)c1ccc([N+](=O)[O-])cc1	/	/	-39%	/	5%	3%	?	-5%
CCCCN(CCCNC(=O)c1cc(Nc2ccc(OC)c(OC)c2)nc2ccccc12)c1ccccc1	-28%	-3.8%	-1%[46.1 µM]	/	/	/	-4%	9%[46.1 µM]
O=S(=O)(c1ccc(Nc2ccc(-c3ccc4c(c3)OCCO4)nn2)cc1)N1CCCC1	?	0.7%	?	13%	6%	-2%	/	-27%
CCCCCN(C(=O)NC(=O)Nc1ccc(C)cc1C)S(C)(=O)=O	/	/	8%[46.1 µM]	/	-2%	-2%	-20%	17%
CS(=O)(=O)c1ccc(Cl)c(NC(=O)c2cccc(Br)c2)c1	3%	-2.9%	31%	14%	0%	-12%	-5%	5%
Nc1nnnn1CC(=O)N/N=C/c1ccc(-c2cccc(Cl)c2)o1	/	/	-47%[46.1 µM]	/	0%	-3%	-5%	-2%
Cc1ccc2c(c1)C1CN(C)CCC1N2C(=O)COc1ccc(N(C)C(=O)c2ccccc2)cc1 (stereo not drawn)	/	/	-17%[46.1 µM]	/	-3%	0%	3%	-1%
Cc1ccc2nc3c(cc(C(=O)NCc4ccco4)c(=N)n3C(C)C)c(=O)n2c1	-5%	-2.5%	-23%[46.1 µM]	/	/	/	-19%	2%[46.1 µM]
COc1cc(C(=O)N2CCN=C2c2ccccc2)cc(OC)c1OC	-4%	0.7%	3%[46.1 µM]	?	22%	5%	-6%	?
COC(=O)c1ccc(N2CCN(C)CC2)c(NC(=O)c2sc3ccccc3c2Cl)c1	/	/	-3%[46.1 µM]	/	0%	/	-19%	4%[46.1 µM]
CC(Sc1nnc(-c2ccc(C(C)(C)C)cc2)n1C)C(N)=O (stereo not drawn)	12%	4.3%	5%	-3%	6%	7%	33%[activator]	10%
CC(C)(C)NS(=O)(=O)c1ccc(CCC(=O)NCc2ccccn2)cc1	/	/	/	15%	-7%	1%	-9%	/
O=C(Nc1cccc(Cl)c1)N1CCOCC1	/	/	/	-8%	3%	12%	-10%	/
CCCOc1ccc(C(CC(=O)O)NC(=O)C(c2ccccc2)c2ccccc2)cc1 (stereo not drawn)	/	/	8%	/	-20%	-5%	0%	-4%
Cc1ccc(Sc2cc(C(=O)NCCN(C)C)c3ccccc3n2)cc1	/	/	/	-6%	-5%	-3%	10%	/
C=CCSc1nnc(NC(=O)CCNC(=O)c2ccco2)s1	/	/	5%[46.1 µM]	13%	1%	2%	33%[activator]	-1%
CCOc1ccc(CC(=O)NCc2ccc3c(c2)CCN3C(C)=O)cc1OCC	8%	2.3%	/	/	/	/	-2%	-2%[46.1 µM]
CCOC(=O)Cc1nc2ccccc2[nH]1	15%	0.9%	18%&18%	9%	13%	5%	-3%	4%
COC(=O)c1ccc(CN2CCN(CCCc3ccccc3)C(CCO)C2)cc1 (stereo not drawn)	/	/	?	-4%	-8%	0%	?	6%[46.1 µM]
O=C(NC1CCCC1)c1cnn2c(C(F)(F)F)cc(-c3ccc4c(c3)OCO4)nc12	?	-2.4%	6%	15%	23%	-7%	17%	-6%
Cc1ccc2[nH]c(=O)c(C(c3nnnn3C(C)(C)C)N(Cc3ccco3)CC3CCCO3)cc2c1 (stereo not drawn)	?	-6.4%	?	-3%	-5%	3%	1%	0%
CN(C)c1nc2n(c(=O)n1)C(C#N)CS2 (stereo not drawn)	4%	0.2%	2%	8%	-8%	-4%	22%	0%
Cc1cccc(OCC(=O)N/N=C\c2cc3c(cc2[N+](=O)[O-])OCO3)c1C	4%	-3.9%	-13%	-2%	6%	0%	-15%	?
O=C1CCc2cc(S(=O)(=O)N3CCN(c4cccc(Cl)c4)CC3)ccc2N1	-6%	2.7%	?	-4%	6%	2%	-6%	0%
O=C(Nc1ccc(S(=O)(=O)Nc2ncccn2)cc1)c1ccccc1Br	/	/	/	10%	8%	-7%	-16%	/
